# CBX7 AlphaScr: inhibitors of human CBX7 binding to H3K27me3 peptide; AlphaScreen His6-CBX7 / biotin-H3K27me3 peptide binding; hits give low values; 66,000 tested, 1.1% active; O95931; normalised signal (fraction of DMSO) (no concentration beside the values); in the data active = normalised signal below about 0.5;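 also: 100 nL library stock added to about 20 µL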
# Target sequence (O95931 whole entry, looked up): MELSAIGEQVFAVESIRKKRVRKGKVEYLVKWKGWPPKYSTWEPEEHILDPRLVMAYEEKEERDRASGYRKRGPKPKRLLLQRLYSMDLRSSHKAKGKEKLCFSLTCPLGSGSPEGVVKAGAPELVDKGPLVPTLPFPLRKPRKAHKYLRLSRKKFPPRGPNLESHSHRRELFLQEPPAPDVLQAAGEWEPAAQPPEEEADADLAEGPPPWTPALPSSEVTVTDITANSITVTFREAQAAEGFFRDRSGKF
# CBX7 AlphaScr z-score: recorded beside CBX7 AlphaScr, whose call it bears; z-score; measured here: z-score of CBX7 signal; some inactives read as strong as hits; reference of the scale not given here;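 same signal on another scale; lower means less binding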
# Numbers without * were called inactive. An excerpt; rates above refer to the full screens.
# Order of values: CBX7 AlphaScr	CBX7 AlphaScr z-score
- CCOC(=O)c1sc2nc(C)nc(N3CCCC3)c2c1C
    0.956	-0.517
- O=C1CCc2cc(S(=O)(=O)NCCC(=O)N3CCCCCC3)ccc2N1
    1.04	0.802
- Cc1cccc(C)c1Nc1c(-c2ccccn2)nc2ccc(Cl)cn12
    0.539	-0.801
- COc1ccc(-c2nc(CS(=O)(=O)CC(=O)NCCC3=CCCCC3)c(C)o2)cc1
    1.02	0.0526
- CCCCCc1ccc(-c2ccc(C(=O)Nc3ccc(CCCC)cc3)cc2)nc1
    0.986	-0.348
- O=C(Nc1ccccc1-c1nc2ccccc2s1)c1cccc(Br)c1
    1.21	5.84
- CCN(CC)CCCNC(=O)CS(=O)(=O)Cc1nc(-c2ccccc2C)oc1C
    1.32	2.68
- CCN(CC)CCn1c(NC(=O)c2cccs2)nc2ccccc21
    0.514	-8.31
- COc1cc2c(C(=O)Nc3ccc(C)cc3Br)cn(CC(C)C)c(=O)c2cc1OC
    1.22	1.84
- O=C1CCCC2=C1C(c1cccs1)CC(=O)N2c1ccc(F)cc1F (stereo not given)
    1.16	1.49
- Cc1c(C(=O)Nc2ccc(N(C)C)cc2)sc2nc(-c3ccccc3)cn12
    0.907	-1.78
- CCOc1ccc(CCNc2ccc3nnc(C)n3n2)cc1OCC
    0.966	-0.945
- Cc1cccc(OCC(=O)Nc2ccc(S(=O)(=O)Nc3ncccn3)cc2)c1
    1.06	0.271
- CN(C1CCCCC1)S(=O)(=O)c1ccc(C(=O)Nc2ccccc2-c2nc3ccccc3s2)cc1
    1.18	0.211
- CC(C)(C)OC(=O)N1CCC(c2c(C(=O)Nc3ccc(F)cc3)cnn2-c2ccc(F)cc2)CC1
    0.971	-1.14
- CCOc1ccc(-c2cc(-c3ccc(C)cc3)[nH]c(=O)c2C#N)cc1
    1.03	1.14
- Cc1ccc(OCC(=O)Nc2ccc(-c3nc4cc(C)ccc4o3)cc2)c(C)c1
    1.01	0.081
- Cc1ccc2[nH]c3c(c2c1)CCCC3NCc1ccc(F)cc1 (stereo not given)
    0.428*	-3.59*
- Cc1cc(N2CCN(c3ncccn3)CC2)nc2ccc(NC(=O)c3cccc(N(C)C)c3)cc12
    0.826	-1.63
- COc1cccc(-c2nc(Cc3ccc(Cl)cc3)no2)c1
    1.75	10.9
- CCOC(=O)c1c(CN2CCN(c3ccccc3)CC2)n(C)c2ccc(OC)c(S(=O)(=O)c3ccccc3)c12
    0.774	-3.11
- O=C(CSc1nccn1-c1cccc(Cl)c1)Nc1nc2ccccc2s1
    1.07	1.19
- COc1ccc(CCNC(=O)c2ccc3c(c2)N(Cc2ccc(Cl)cc2)CCS3)c(OC)c1
    0.805	-3.05
- O=c1oc2ccc3ccccc3c2cc1-c1nnc(Nc2ccccc2)s1
    1.2	3.64
- c1ccc2c(c1)c1ccccc1n2CCCCN1CCOCC1
    0.931	-1.34
- CCOc1ccccc1N1CCN(C(=O)c2cc(-c3cccc(C)c3)nc3ccccc23)CC1
    0.754	-5.6
- C=CCN(C(=O)c1cc2c(-c3ccc(OC)c(OC)c3)nn(C)c2s1)c1ccccc1
    0.998	-0.0228
- Cc1ccc(C)c(Nc2nnc(-c3ccc(C)c(S(=O)(=O)NC(C)(C)C)c3)c3ccccc23)c1
    0.754	-4.64
- Cc1ccc(CN2C(=O)CCC2C(=O)NCCCN2CCCC(C)C2)cc1 (stereo not given)
    0.906	-1.86
- O=C(O)c1[nH]c2ccccc2c1CC(=O)N1CCCCC1
    0.965	-0.782
- CC(=O)NS(=O)(=O)c1ccc(NC(=O)c2cc(-c3ccc(C)c(C)c3)nc3ccccc23)cc1
    0.757	-7.15
- COc1cc2[nH]c(=O)n(CCC(=O)N3CCN(c4ccc(F)cc4)CC3)c(=O)c2cc1OC
    1.01	0.197
- CN(CC(=O)Nc1ccccc1F)S(=O)(=O)c1cccc2cccnc12
    0.92	-0.951
- CCOC(=O)c1c(C)n(-c2ccc(C)cc2)c2ccc(OCC(O)CN3CCCCC3)cc12 (stereo not given)
    0.989	-0.23
- COc1cccc(CN2CCN(Cc3ccc(OC)cc3OC)CC2)c1
    0.878	-1.47
- COc1cc(Cl)c(S(=O)(=O)NCCc2c(C)[nH]c3ccc(C)cc23)cc1Cl
    0.595	-0.403
- COc1ccc(N2Cc3cccc(C(=O)Nc4cc(OC)ccc4OC)c3C2=O)cc1
    0.799	-5.64
- CCOC(=O)C1CCCN(c2c(NCCc3cccc(C)c3)c(=O)c2=O)C1 (stereo not given)
    0.978	-0.73
- CNC(=O)c1ccc2c(c1)N(Cc1c(F)cccc1Cl)C(=O)c1ccccc1S2
    1.28	1.2
- COc1ccc(-c2noc(COc3ccc(C)cc3C)n2)cc1
    1.25	9.73
- CC(CCc1ccccc1)NC(=O)c1ccc2c(c1)N(Cc1ccccc1)C(=O)CS2=O (stereo not given)
    1.03	0.499
- CCc1nc2ccccc2n1CC(O)COc1cccc(OC)c1 (stereo not given)
    0.902	-1.35
- Cc1oc(-c2cccc(Cl)c2)nc1CN1CCC(C(=O)NC2CCCC(C)C2C)CC1 (stereo not given)
    1.19	1.6
- Cc1cc2c(cc1C)NC(c1cccc(Oc3ccccc3)c1)C1=C(CC(C)(C)CC1=O)N2 (stereo not given)
    1.12	0.794
- CC1(C)CC(=O)c2c(nn(-c3ccccc3Cl)c2-c2ccccc2)C1
    0.944	-2.01
- COc1ccccc1CNC(=O)C1CCC(=O)N1C(C)C (stereo not given)
    1.05	0.994
- CCc1ccccc1NC(=O)CC1Sc2ccccc2NC1=O (stereo not given)
    0.936	-1.73
- COc1ccc(OC)c(C2=NOC(C(=O)N3CCN(c4ccccc4OC)CC3)C2)c1 (stereo not given)
    0.774	-4.11
- CCC(CC)C(=O)Nc1c(-c2ccc(F)cc2)nc2cc(C)ccn12
    1.03	0.76
- CN(CC(=O)Nc1cccc(Cl)c1)S(=O)(=O)c1cnc[nH]1
    0.893	-1.17
- Cc1ccccc1-c1nnc(SCC(=O)c2ccccc2)o1
    1.15	2.53
- CCOc1ccc(S(=O)(=O)c2cn(Cc3cccc(Cl)c3)c3ccc(OC)cc3c2=O)cc1
    0.947	-2
- Cc1noc(/C=C/c2cccs2)c1S(=O)(=O)N1CCCC(C(=O)N2CCCC2)C1 (stereo not given)
    1.01	0.41
- CCCCOc1ccc(-c2[nH]ncc2Oc2ccccc2)c(O)c1
    0.69	-4.81
- COc1cc(Br)c(C2CC(=O)Nc3cc(OC)c(OC)cc32)cc1OC (stereo not given)
    0.958	-0.54
- Cc1cccc(-c2nnc(NC(=O)c3ccc(F)cc3)s2)c1
    0.941	-0.134
- COc1ccc(-n2nc3c(c2NC(=O)Cc2ccc(OC)c(OC)c2)CS(=O)(=O)C3)cc1
    1.18	2.07
- CCOc1ccc(C(=O)Nc2ccc(-c3nc4cc(C)ccc4o3)cc2)cc1
    0.881	-0.48
- COc1ccccc1CNS(=O)(=O)c1ccc2c(c1)CCN2C(=O)C1CCC1
    0.957	-1.2
- COc1ccccc1Nc1nc(-c2ccccc2Cl)nc2ccccc12
    1.28	8.48

# (cont.)
# Order of values: CBX7 AlphaScr	CBX7 AlphaScr z-score
- CCC(=O)Nc1cc(-c2nn(C)c(=O)c3ccccc23)ccc1OC
    0.991	-0.316
- CCOCCCNC(=O)CN1C(=O)CSc2ncccc21
    1.06	2.26
- Cc1ccc2nc(Nc3nc(C)cc(-c4ccccc4)n3)[nH]c(=O)c2c1
    1	-0.00126
- Cc1onc(-c2ccccc2Cl)c1C(=O)NCCc1ccc(S(N)(=O)=O)cc1
    1.03	0.0371
- COc1ccc(OC)c(Nc2cc(C(=O)NCCC3=CCCCC3)c3ccccc3n2)c1
    1.02	0.694
- COC(CNC(=O)CN1CCN(Cc2ccccc2F)C1=O)OC
    1.02	0.263
- CCc1ccc(NC(=O)CSc2nnc(-c3cccnc3)n2CC)cc1
    1	0.0147
- COc1ccc(OCCSc2nc3ccccc3n2CCOc2ccccc2)cc1
    0.996	-0.0364
- Cc1cc(C)c2nc(N3CCC(C(=O)N4CCN(C5CCCCC5)CC4)CC3)sc2c1
    1.04	0.772
- Cc1ccccc1-c1nc(CN2CCC(C(=O)NCc3cccs3)CC2)c(C)o1
    1.03	1.08
- Cc1cccc(-c2nc(Nc3ccc(C(F)(F)F)cc3)c3ccccc3n2)c1
    1.23	6.29
- O=C1CCCC2=C1C(c1ccc(F)cc1)Nc1ccc(C(=O)c3ccccc3)cc1N2 (stereo not given)
    0.774	-0.891
- Cc1cccc(NC(=O)c2ccc(F)c(S(=O)(=O)N3CCOCC3)c2)c1
    1.07	0.764
- COc1ccc(-c2nnc(NC(=O)c3ccc(S(=O)(=O)N4CCCCC4)cc3)o2)c(OC)c1
    0.881	-2.7
- COc1ccc(C(=O)N2CC(=O)Nc3ccc(F)cc3C2c2ccc(F)cc2)cc1OC (stereo not given)
    1.04	1.09
- CC(C)n1cnc2cc(NCc3ccccn3)ccc21
    0.227*	-22.2*
- COc1ccc(Nc2cc(C(=O)NCCc3ccc(C)cc3)c3ccccc3n2)cc1
    0.859	-1.68
- Cc1cc(NC(=O)CSc2nnc(-c3ccc(C)c(C)c3)o2)no1
    1.14	1.42
- Cc1ccc(CNC(=O)CCCn2c(=O)c3sccc3n(Cc3ccc(C)cc3)c2=O)cc1
    1	0.0675
- CCN(C(=O)CCc1nc(-c2ccccc2F)no1)c1ccc(OC)cc1
    1.04	1.12

# Whole records, quoted from the list.
# `CCC(=O)Nc1cc(-c2nn(C)c(=O)c3ccccc23)ccc1OC` is entered as CBX7 AlphaScr = 0.991; CBX7 AlphaScr z-score = -0.316
# `COC(CNC(=O)CN1CCN(Cc2ccccc2F)C1=O)OC` is entered as CBX7 AlphaScr = 1.02; CBX7 AlphaScr z-score = 0.263

# Further records.
# Order of values: CBX7 AlphaScr	CBX7 AlphaScr z-score
- COc1ccc(Nc2nc3ccccc3nc2NS(=O)(=O)c2ccc(Cl)cc2)cc1OC
    0.842	-4.54
- CCOc1ccc(NC(=O)CCc2c(C)nc3cc(-c4ccc(Cl)cc4)nn3c2C)cc1
    0.932	-1.66
- O=C(Cc1c(Sc2ccccc2)c2ccccc2n1Cc1ccccc1)NCCO
    0.932	-3.07
- Cc1cccc(N(C)C(=O)C(NS(=O)(=O)c2ccc3c(c2)CCC(=O)N3)c2ccccc2)c1 (stereo not given)
    1.06	0.379
- O=C(CN1C(=O)COc2ccc(S(=O)(=O)N3CCCC3)cc21)N1CCCCCC1
    1.02	0.787
- COc1cccc(OC)c1OCC(O)CN1CCN(c2ccccn2)CC1 (stereo not given)
    1.03	0.72
- Cc1ccc(C)c2[nH]c(=O)c(CCN3C(=O)c4ccccc4C3=O)cc12
    1.03	0.81
- CCN1C(=O)c2ccccc2S(=O)c2ccc(C(=O)NCc3ccc(F)cc3)cc21 (stereo not given)
    1.02	0.524
- Cc1ccc(S(=O)(=O)N(CC(=O)Nc2cccnc2)c2ccccc2F)cc1
    0.744	-1.01
- COc1ccc(-c2cc(C(=O)NC(C)c3ccccc3)no2)cc1 (stereo not given)
    0.951	-0.171
- CCCN1Cc2cccc(C(=O)NCc3ccc4c(c3)OCO4)c2C1=O
    1.01	0.0124
- COc1ccccc1CNC(=O)CNC(=O)Cn1cnc2sc3c(c2c1=O)CCCC3
    0.991	-0.281
- CC(=O)NC(CCS(C)(=O)=O)C(=O)Nc1cc(F)ccc1C (stereo not given)
    1	0.0321
- CCOc1ccc(-n2nc(C(=O)NC3CCCCC3)c3ccccc3c2=O)cc1
    1.17	3.06
- COc1cccc(CNC(=O)c2cnn3c(C)c(Cc4ccccc4Cl)c(C)nc23)c1
    0.782	-5.99
- O=C(NCc1ccc(F)cc1)C1CCC(=O)N1C1CCCCC1 (stereo not given)
    0.987	-0.59
- O=C(C1=CCN(S(=O)(=O)c2ccccc2)CC1)N1CCN(c2ccccn2)CC1
    0.984	-0.306
- CCOC(=O)Cc1c(Sc2ccccc2)c2ccccc2n1C
    1.07	1.98
- COc1ccc(NC(=O)CCS(=O)(=O)c2nc(-c3cccs3)cc(C(F)(F)F)n2)cc1OC
    0.899	-2.63
- CCCN1CCN(c2ncnc3sc(C(=O)N4CCN(c5ccccc5F)CC4)c(C)c23)CC1
    1.11	1.39
- CC1CCCCC1NC(=O)CN1C(=O)CSc2ncccc21 (stereo not given)
    1.02	0.647
- Cc1cc(C)c(NC(=O)CSc2nnc(CNC(=O)c3c(F)cccc3Cl)o2)c(C)c1
    0.817	-3
- O=C(c1ccc(Cl)cc1)N(Cc1cccs1)C1CCS(=O)(=O)C1 (stereo not given)
    1.19	1.68
- COc1ccc(N2CCN(c3cc(=O)n(-c4ccc(Br)cc4)c(=O)[nH]3)CC2)cc1
    1	0.014
- Cc1cccc2c3c([nH]c12)CCN(Cc1ccccc1)C3
    0.877	-3.31
- Cc1cc(N2CCN(C)CC2)nc2ccc(NC(=O)CCC(=O)NC3CCCCC3)cc12
    1.04	0.0578
- Cc1cc2ncn(CC(O)COc3ccccc3C)c2cc1C (stereo not given)
    0.172*	-15.6*
- Cc1onc(-c2ccccc2Cl)c1C(=O)Nc1ccc(-n2nncc2-c2ccccc2)cc1
    1.1	1.21
- CCn1cc(C(=O)N(C)c2ccc(Cl)cc2)c2cc(OC)c(OC)cc2c1=O
    1.2	1.72
- O=C(CCCC1=NS(=O)(=O)c2ccccc2N1)N1CCN(c2ccccc2)CC1
    0.99	-0.214
- COc1ccc(CNC(=O)C2CCN(Cc3nc(-c4ccc(OC)c(OC)c4)oc3C)CC2)cc1
    1.01	0.111

# Entries above containing a CF3 group (two):
# Order of values: CBX7 AlphaScr	CBX7 AlphaScr z-score
- Cc1cccc(-c2nc(Nc3ccc(C(F)(F)F)cc3)c3ccccc3n2)c1
    1.23	6.29
- COc1ccc(NC(=O)CCS(=O)(=O)c2nc(-c3cccs3)cc(C(F)(F)F)n2)cc1OC
    0.899	-2.63
